High-throughput results: PubChem BioAssay, National Center for Advancing Translational Sciences (NCATS)
TSHR agonist – activates the human thyroid stimulating hormone receptor; 0.48% of 73,000 active; Potency, µM (highest dose often 57.1 µM), for inactives: at the top dose activation, usual class: activators; P16473; HEK293-CNG-TSHR cells (CNG channel as cAMP sensor), membrane potential dye, cAMP; active = well fitted activation curve of enough size with the parental cells flat; inconclusive = any curve in the parental cells; inactive = parental cells flat and receptor cells flat or falling; also: potency is read from the fitted curve at half-maximal effect; % of control where 0% means no effect; weak receptor curves with flat parental cells got no call and are not listed
Target sequence (P16473 whole entry, looked up): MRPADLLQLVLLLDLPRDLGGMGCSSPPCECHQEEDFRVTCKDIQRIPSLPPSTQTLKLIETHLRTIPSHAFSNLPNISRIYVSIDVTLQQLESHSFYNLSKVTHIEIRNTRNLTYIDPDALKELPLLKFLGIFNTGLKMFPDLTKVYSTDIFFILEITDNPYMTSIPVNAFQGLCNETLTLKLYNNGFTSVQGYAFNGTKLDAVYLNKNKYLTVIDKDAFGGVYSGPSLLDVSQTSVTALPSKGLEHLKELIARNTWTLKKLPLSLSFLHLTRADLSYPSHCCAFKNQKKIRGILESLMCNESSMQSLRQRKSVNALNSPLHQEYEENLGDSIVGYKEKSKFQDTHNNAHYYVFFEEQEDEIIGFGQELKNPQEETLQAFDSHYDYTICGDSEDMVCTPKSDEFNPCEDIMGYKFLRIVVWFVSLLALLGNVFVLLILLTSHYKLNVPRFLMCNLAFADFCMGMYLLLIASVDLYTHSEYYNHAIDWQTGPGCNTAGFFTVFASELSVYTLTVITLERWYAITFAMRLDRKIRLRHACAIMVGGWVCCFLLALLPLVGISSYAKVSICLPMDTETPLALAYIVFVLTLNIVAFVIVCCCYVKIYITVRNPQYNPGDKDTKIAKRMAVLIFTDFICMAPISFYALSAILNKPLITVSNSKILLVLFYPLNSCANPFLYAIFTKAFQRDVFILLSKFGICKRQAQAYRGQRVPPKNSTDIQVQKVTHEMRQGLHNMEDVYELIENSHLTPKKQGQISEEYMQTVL
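cAMP rise detected as CNG-channel membrane depolarization by fluorescent dye (emission 590 nm), 30 min after compound, following 60 min dye loading containing 100 uM RO 20-1724 at room temperature. Cells: TSHR/CNG HEK 293, with parental CNG HEK 293 as control.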
Resorufin autofl – compound fluoresces in the resorufin spectral region. max dye-equivalent concentration, M. 0.04% of 59,000 active. Compound fluorescence, resorufin region 547/598 nm, buffer; stronger effect = higher value; active = above 10 nM dye equivalent; inconclusive = 1 to 10 nM; inactive = 1 nM or less; a few of its hits are not listed in these tables; also: highest value over a series up to 38 µM
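Intrinsic fluorescence profiled in the resorufin window (ex 547 nm, em 598 nm) after 15 min at room temperature in pH 8.0 Tris buffer (100 mM); responses normalized against a six-point resorufin standard series as dye-equivalent concentration.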
A647 fluor – compound fluoresces in the A647 spectral region; max dye-equivalent concentration, M; 59,000 tested, under 10 active; Compound fluorescence, A647 channel (570/671 nm), Tris buffer; active means above 1 µM dye equivalent; inconclusive means 0.1 to 1 µM; inactive means 0.1 µM or less;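 also: values scaled relative to a standard on each plate; highest value over a series up to 38 µM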
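Fluorescence read (570 nm ex, 671 nm em) after 15 min RT incubation of compounds in 100 mM Tris buffer, pH 8.0; values expressed as dye-equivalent concentration against a six-point A647 standard series on each plate.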
AID923 – qHTS Assay for Allosteric/Competitive Inhibitors of Caspase-1: Spectroscopic Profiling in AFC Spectral Region. compound fluorescence, AFC spectral region (405/520 nm); almost no hit is shown here. Potency, µM (doses to about 57.5 µM), for the others: at the top dose fluorescence increase, actives largely listed as activators. 1.1% of 75,000 active. AID 923, 2007; active = well fitted activation curve with a large enough effect; inconclusive = small, poorly fitted or top-dose-only effect;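 also: potency is read from the fitted curve at half-maximal effect; 0% is about no effect; scaled to a free AFC standard on each plate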
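Titrations up to 57 uM read every 20 sec for 3 min (405/520 nm) with 50 nM caspase 1 and 5 uM Ac-WEHD-AFC, pH 7.5 HEPES buffer. Fluorescence-vs-time intercept gave baseline, scaled against on-plate AFC standard.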
A488 autofl – compound autofluorescence in A488 spectral region; max dye equivalency, M; 0.1% of 59,000 active; compound autofluorescence, A488 spectral region, dye equivalency; stronger effect = higher value; AID 591; active = above 10 nM dye equivalent; inconclusive = 1 to 10 nM; inactive = 1 nM or less; about half of its hits are not listed in these tables;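 also: highest value over a series up to 38 µM; compound alone in buffer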
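Compound autofluorescence was read in 100 mM Tris pH 8.0 after 15 min at room temperature, ex 480 nm/em 540 nm. Intensities were converted to A488 dye-equivalent concentration using an on-plate six-point A488 standard curve.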
Starred values were filed as active, the others as inactive; i = inactive; ? = inconclusive; · = not tested or not shown; & = joins results of further samples; [ ] = remark or other dose. An excerpt; the hit share may differ from the screen's.

SMILES	TSHR agonist	Resorufin autofl	A647 fluor	AID923	A488 autofl
Cc1ccccc1Nc1nc(N)nc(CSc2nnc3sc4ccccc4n23)n1	17%	i	5.7e-09	1.3%	i
CCCc1nc(NC2CCCCC2)c(C#N)c2c1COC(C)(C)C2	·	i	5.7e-08	·	i
COc1ccccc1N1CCN(C(=O)c2c(-c3c(Cl)cccc3Cl)noc2C)CC1	·	i	4.4e-09	-3.3%	i
Cn1c(=O)oc2cc(S(=O)(=O)Nc3ccc4c(c3)OCCO4)ccc21	8%	i	5.3e-08	-2.4%	i
COc1ccccc1OCCCn1c(=O)oc2ccccc21	-1%	i	1e-09	0.9%	i
CCC(C)[C@H](N)c1nnc(SCC(=O)Nc2cccc(Cl)c2)o1 (stereo not given in full)	-5%	i	2.9e-09	3.1%	i
COc1ccc2[nH]c3c(=O)n(CCCCC(=O)NCCN4CCCC4)c(=S)[nH]c3c2c1	-6%[11.4 µM]	i	3.1e-08	-2.8%	i
Cc1ccccc1CSc1nncn1N	2%	i	9.2e-09	2.9%	i
Cc1onc(-c2ccccc2)c1C(=O)NCc1cccnc1	1%	·	·	-2.5%	·
Nc1ncnc2c1cnn2-c1ccccc1	-1%	i	1e-09	-0.1%	i
CC1=C(C(=O)N2CCOCC2)C(c2ccsc2)C2=C(CCCC2=O)N1 (stereo not given)	2%	i	1.5e-09	8.6%	i
CN(C(=O)c1ccc(S(=O)(=O)NC2CCCC2)cc1)C1CCCCC1	-5%	i	6e-09	-3.2%	i
CCCc1ccc(OCCNC(C)=O)cc1	-3%	i	1e-09	-0.2%	i
COc1ccc(CCCO[C@@H](Cn2ccnc2)c2ccc(OC)cc2)cc1	?	·	·	-1.4%	·
O=C(NCc1ccc2c(c1)OCO2)C1CCN(c2ccc(S(=O)(=O)N3CCCC3)cc2)CC1	?	i	1e-09	0.8%	i
O=S1(=O)CC=C(CSc2nc3ccccc3[nH]2)C1	-13%	i	1.6e-09	-0.4%	i
COc1ccc(NC(=O)Nc2ccccc2C(=O)N2CCCC2)cc1	-1%	i	1e-09	-1.8%	i
CC(C)(C)n1nnnc1C(c1ccncc1)N1CCN(C2CCCCC2)CC1 (stereo not given)	3%	i	3.1e-08	-0.9%	i
COc1ccccc1Nc1cc(C(=O)NCCCN2CCOCC2)c2ccccc2n1	?	·	·	5.2%	·
COc1cc(C2/C(=C(\O)c3ccc4c(c3)CC(C)O4)C(=O)C(=O)N2CCCn2ccnc2)ccc1O (stereo not given)	3%	i	2.2e-08	1.0%	i
Cc1cc(N=Cc2c(O)ccc3ccccc23)no1	6%	·	·	1.1%	·
CCOC(=O)c1c(C)oc2cc(Br)c(OC(=O)N3CCOCC3)cc12	6%	·	·	1.5%	·
O=C(CSc1nnnn1C1CCCCC1)NCc1cccc(C(=O)O)c1	-2%	i	3.4e-09	0.4%	i
CCC(C)NC(=O)C(Cc1ccccc1)NS(=O)(=O)c1cccc2nsnc12 (stereo not given)	-2%	i	7.9e-09	-0.9%	i
COc1ccccc1NC(=O)CSc1nnc(-c2ccco2)o1	1%	i	5.8e-09	-0.2%	i
O=C1NCCN1C(=O)N(c1ccccc1)c1ccccc1	0%	i	1.8e-09	-0.8%	i
CCCOc1ccc(NC(=O)C2CC(=O)N(C(C)C)C2)cc1 (stereo not given)	-2%	i	1e-09	2.3%	i
CCOc1ccc(N(CC(=O)NCc2ccccc2)S(C)(=O)=O)cc1	9%	·	·	0.8%	·
COc1ccccc1NC(=O)COc1ccc(/C=N/n2cnnc2)cc1OC	1%[11.4 µM]	·	·	-1.5%	·
COC(=O)Nc1nc2ccc(C(=O)c3cccs3)cc2[nH]1	?	i	3.6e-08&1.3e-08	-2.3%	i

Given with two lines to a compound: entries from further up
Values in the order – TSHR agonist, Resorufin autofl, A647 fluor, AID923, A488 autofl
CC(C)(C)n1nnnc1C(c1ccncc1)N1CCN(C2CCCCC2)CC1 (stereo not given)
→ 3%, i, 3.1e-08, -0.9%, i
COc1ccccc1Nc1cc(C(=O)NCCCN2CCOCC2)c2ccccc2n1
→ ?, ·, ·, 5.2%, ·

New compounds follow
SMILES	TSHR agonist	Resorufin autofl	A647 fluor	AID923	A488 autofl
CCn1cc(C(=O)NCCc2ccccc2)c(=O)c2cc(F)c(N3CCN(C)CC3)cc21	·	i	1e-09	·	i
CCN1CCN(CCNC(=O)c2cn(Cc3ccccc3F)nn2)CC1	5%	i	9.8e-09	-0.2%	i
COc1cc2oc(-c3ccccc3)cc(=O)c2cc1OC	10%	i	1e-09	-2.3%	i
O=S(=O)(Nc1ccc(O)c(CN2CCCCC2)c1)c1ccccc1	?	i	1.8e-08	1.1%	i
N#Cc1ccc(CN2CCCC3(CCN(S(=O)(=O)c4ccccc4)CC3)C2)cc1	?	i	1e-09	1.3%	i
Fc1ccc(NCc2nnc(SCc3nnc(-c4ccccc4)o3)n2CC2CCCO2)cc1 (stereo not given)	15%	i	8.3e-09	1.3%	i
CCN(CC)CCCNc1nnc(C)c(=O)[nH]1	4%	i	1.9e-08	1.6%	i
CNc1nc(-c2c(C)noc2C)nc2ccccc12	7%	i	3.6e-08	0.6%	i
CCCCOc1ccc(C(=O)Nc2ccncc2)cc1	29%	i	1e-09	-0.1%	i
COc1ccc(S(=O)(=O)NCCCCNS(=O)(=O)c2ccc(OC)cc2)cc1	0%	i	4.1e-09	-0.3%	i
CCOC(=O)N1CCN(C(=O)C2CCCN(S(C)(=O)=O)C2)CC1 (stereo not given)	-1%	i	4.4e-09	1.3%	i
CN1C(=O)C(O)(CC(=O)c2ccc(F)cc2)c2cc(Br)ccc21 (stereo not given)	-9%	·	·	-2.3%	·
Cc1cc(C)cc(Nc2cc(C)nc3nc(C)nn23)c1	32%	·	·	1.6%	·
c1ccc2c(NCCN3CCOCC3)nc(-c3ccc4c(c3)OCO4)nc2c1	?	i	1e-09	14%	i
Nc1ccc2nc(-c3ccc(Cl)cc3)[nH]c2c1	-3%	·	·	4.8%	·

Profiles from above:
Profile of CN1C(=O)C(O)(CC(=O)c2ccc(F)cc2)c2cc(Br)ccc21 (stereo not given) = TSHR agonist: -9%; Resorufin autofl: ·; A647 fluor: ·; AID923: -2.3%; A488 autofl: ·
Profile of CCOC(=O)N1CCN(C(=O)C2CCCN(S(C)(=O)=O)C2)CC1 (stereo not given) = TSHR agonist: -1%; Resorufin autofl: i; A647 fluor: 4.4e-09; AID923: 1.3%; A488 autofl: i

Next compounds follow:
SMILES	TSHR agonist	Resorufin autofl	A647 fluor	AID923	A488 autofl
O=C(c1ccc2c(c1)OCO2)N(c1ccccc1)C1C=CS(=O)(=O)C1 (stereo not given)	-3%	i	1e-09	-0.1%	i
Cc1ccc(OCC(=O)NCCN2CCCC2)cc1	1%	i	2.5e-09	1.3%	i
COc1cccc(C=NCCNC(=O)c2nonc2N)c1O	·	i	6e-09	·	i
CCOC(=O)N1CCN(C(=O)c2cc(Cl)c(Cl)cc2C(=O)O)CC1	0%	i	1e-09	-1.1%	i
O=C(Cc1ccccc1I)Nc1ccccc1	0%	·	·	-1.0%	·
CCOC(=O)CNc1c(-c2ccc(O)cc2)nc2ccccn12	?	i	1e-09	10%	i
CC(C)(CN)CN	1%[11.4 µM]	i	4.9e-08	2.7%[11.5 µM]	i
COCc1c(Br)c(C)nc(OCC(=O)O)c1C#N	4%	i	3.2e-08	-2.8%	i
O=C1NC(c2ccccc2)(C(F)(F)F)SC2=CCCCCN12 (stereo not given)	?	i	2.6e-08	0.2%	i
COc1ccc(-c2nc(N)ncc2Oc2ccccc2Br)c(O)c1	14%	i	2.2e-09	11%	i
CCCn1c(SCC(=O)Nc2ccc3c(c2)OCCO3)nnc1-c1ccco1	0%	i	1e-09	-1.2%	i
COC(=O)[C@@]1(Cc2ccccc2)[C@H]2c3cc(C(=O)N4CCCC4)n(Cc4ccc(C(F)(F)F)nc4)c3C[C@H]2CN1C(=O)c1ccccc1	?	·	·	0.1%	·
O=C(CN1CCN(c2ccccn2)CC1)NCc1cccs1	-2%	i	3.8e-08	2.4%	i
Cc1cccn2c(=O)c(C=Nc3c(C)n(C)n(-c4ccccc4)c3=O)c(N3CCCC3)nc12	3%[11.4 µM]	i	1e-09	0.5%	i
O=C(Oc1ccc(-c2ccccc2)cc1)N1CCOCC1	-5%	i	4.5e-09	0.7%	i
CCOC(=O)N1CCN(C(=O)Cc2ccc(-n3c(=S)[nH]c4ccccc4c3=O)cc2)CC1	0%	i	1e-09	1.3%	i
Cc1cc(=O)[nH]c(Cc2ccc(OC(C)C)cc2)n1	3%	·	·	-0.4%	·
CSc1ccc(S(=O)(=O)Nc2c(C)cccc2C)cc1	?	i	5.8e-08	-1.5%	i
C[C@@H](/C=C\c1cccc(Oc2ccc(F)cc2)c1)N(O)C(N)=O	21%	i	1e-09	-3.9%	i
COc1cc2nc(SCC(=O)NCCc3ccccc3)n(Cc3ccco3)c(=O)c2cc1OC	13%	i	6.4e-09	1.2%	i
CCn1nc(C(=O)N2CCc3ccccc3C2)c2ccccc2c1=O	8%	i	3.1e-08	-1.5%	i
COc1cc(OC)c(C2Oc3nc(SC)nnc3-c3ccccc3N2C(C)=O)cc1OC (stereo not given)	13%	·	·	-2.0%	·
CCC(C)(C)n1nnnc1CN1CCC(c2nc3ccc(C)cc3[nH]2)CC1	3%	i	3.5e-09	0.5%	i
CCOC(=O)Cc1cc(=O)[nH]c(Nc2nc3ccccc3o2)n1	-3%	·	·	4.7%	·
CCn1ncc(C2=NOC(C(=O)N3CCC(C(N)=O)CC3)C2)c1C (stereo not given)	20%	·	·	1.6%	·
CCOC(=O)c1c(C)n(CC(O)c2ccccc2)c2ccc(O)cc12 (stereo not given)	25µM*	i	1.3e-09	0.9%	i
Cc1ccc(C(=O)OCC(=O)Nc2ccc3c(c2)OCO3)o1	5%	i	4.2e-09	-1.1%	i
CC(C)c1nc(SCC(=O)Nc2cccc(C(F)(F)F)c2)c2c(=O)n(C)c(=O)n(C)c2n1	13%	·	·	1.3%	·
O=C(COc1cc(Cl)c(Cl)cc1Cl)Nc1ccncc1	28%	i	5.5e-08	-1.6%	i
OCCCN1c2ccccc2Nc2nnc(-c3ccccc3)cc21	-2%	i	2e-08	-0.7%	i
CCCn1c(/N=C/c2cc(OC)ccc2O)nc2ccccc21	1%	i	3e-08	1.7%	i
CC(C)c1ccccc1NC(=O)c1ccco1	8%	i	1e-09	8.1%	i
O=C(Nc1ccc2c(c1)OCCO2)C1CCN(C(=O)c2ccc(F)cc2)CC1	0%	·	·	-1.2%	·
O=C(O)C(Cc1ccccc1-c1ccccc1)C(=O)O	3%[11.4 µM]	i	2.5e-08	-1.8%[11.5 µM]	i
CCN1CCN(CC(O)COCc2ccccc2)CC1 (stereo not given)	10%	i	1.2e-09	-1.4%	i
CCc1cccc(NC(=O)CN(C)S(=O)(=O)c2cccc3nsnc23)c1	-14%	i	9e-09	-2.3%	i
CC1=C(C(=O)OC2CCCCC2)C(c2ccc(C)o2)C2=C(CC(C)(C)CC2=O)N1 (stereo not given)	?	i	1e-09	4.3%	i
CN(C)C(=O)[C@]1(C)C[C@H]1[C@H](NC(=O)CNC(=O)[C@@H]1CCCN1C(=O)[C@]1(C)C[C@H]1[C@H](NC(=O)OCc1ccccc1)c1ccccc1)c1ccccc1	17%	·	·	-0.4%	·
COCCNC(=O)Cn1cnc2c1c(=O)n(C)c(=O)n2C	9%[11.4 µM]	·	·	-2.7%	·
CN1CCC[C@@H](CC2c3ccccc3Sc3ccccc32)C1	?	i	6.6e-09	2.8%[25.7 µM]	i
Nc1nc(SCC(=O)NCc2ccco2)[nH]c(=O)c1-c1ccccc1	4%	i	1.3e-09	-2.3%	i
